rRNA inh HTS: reduced GFP signal of wild-type E. coli, primary screen, bacterial rRNA inhibitor project, GFP/RFP fluorescence, OD600, single point; E. coli WT GFP vs humanized-ribosome RFP mutants, 24 h; active compounds read low; DMSO median 0, no signal -100; GFP signal change (wild-type ribosome), % (no concentration beside the values); hit rate 1.6% among 350,000;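 active = significant combined selectivity score with lowered wild-type GFP, culture density cut under 30%, mutant RFP and density less affected; inactive = any of these conditions unmet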; note: one replicate is shown; some compounds called inactive have numbers as strong as hits
FGF22 binding: binders of human FGF22 protein, primary screen, FGF22 synaptogenesis inhibitor project, biophysical, thermal shift, single point | Fibroblast growth factor 22 (Homo sapiens), Q9HCT0 | AID 651658, 2012 | calls only at 9.99 µM | recombinant FGF22 thermal shift, SYPRO orange fluorescence; percent of sucrose octasulfate shift, DMSO zero | hit rate 1.5% among 340,000;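 active = melting point raised past a set limit in the mean and every replicate; three in four hits are not shown here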
Target sequence (Q9HCT0 whole entry, looked up): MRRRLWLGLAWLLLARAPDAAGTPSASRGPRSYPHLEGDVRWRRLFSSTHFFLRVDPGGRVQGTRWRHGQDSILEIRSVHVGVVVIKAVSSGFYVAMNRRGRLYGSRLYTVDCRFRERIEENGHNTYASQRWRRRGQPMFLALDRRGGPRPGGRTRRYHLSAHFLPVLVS
AF4-AF9 inh: inhibitors of AF4 peptide binding to AF9, primary screen, biochemical, AlphaScreen, biotin-AF4 peptide, FLAG-AF9, single point | hit rate 0.47% among 350,000 | AID 651704, 2012 | inhibition, % at 10 µM;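 active = every replicate reaching a set inhibition limit, whatever the replicate mean, cut at about 25% in these data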;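 note: 0% = plate neutral control median and 100% = total signal loss; the record names both 10 and 1 µM as test concentration; the first replicate is given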
Target sequence (P42568 whole entry, looked up): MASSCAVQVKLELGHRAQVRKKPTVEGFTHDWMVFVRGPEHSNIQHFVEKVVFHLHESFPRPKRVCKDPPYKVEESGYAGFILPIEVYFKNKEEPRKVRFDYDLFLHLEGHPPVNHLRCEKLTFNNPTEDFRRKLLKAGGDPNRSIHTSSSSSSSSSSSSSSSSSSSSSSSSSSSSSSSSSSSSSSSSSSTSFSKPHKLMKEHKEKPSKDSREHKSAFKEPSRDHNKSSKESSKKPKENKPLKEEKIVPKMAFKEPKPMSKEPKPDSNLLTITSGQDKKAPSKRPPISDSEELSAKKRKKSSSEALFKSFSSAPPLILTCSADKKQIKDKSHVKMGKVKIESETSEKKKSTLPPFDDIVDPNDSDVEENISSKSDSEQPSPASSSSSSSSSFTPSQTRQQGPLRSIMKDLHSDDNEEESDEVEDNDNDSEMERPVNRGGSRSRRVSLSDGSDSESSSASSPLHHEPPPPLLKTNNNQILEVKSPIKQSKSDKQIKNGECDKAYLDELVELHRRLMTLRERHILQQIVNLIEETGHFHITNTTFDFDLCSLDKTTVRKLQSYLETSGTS
rRNA inh HTS OD600: further read-out of rRNA inh HTS, marked with its call; OD600 change, %; measured here: OD600 growth;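 optical density of the mix in the first replicate; 0 = DMSO median and -100 = no signal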
rRNA inh HTS RFP: second read-out of rRNA inh HTS, no call of its own (marks repeat the call); RFP signal change, %; measured here: RFP humanized mutant strains;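 first replicate; 0 = DMSO median and -100 = no signal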
* marks the source's active call; other numbers are inactive results; i = inactive; + = active, no number; & = joins results of further samples. These rows are one share of the data; the hit share may differ from the screen's.

Start of the listing, in advance, 8 compounds:
nr	Compound	AF4-AF9 inh	rRNA inh HTS RFP	FGF22 binding
1	C[C@@H]1CN([C@@H](C)CO)S(=O)(=O)c2ccc(-c3cncnc3)cc2O[C@H]1CN(C)C(=O)c1ccc2c(c1)OCO2	4.3	-1.8	i
2	O=C(NCC1CCCCC1)[C@@H]1N[C@@H]2c3ccc(-c4ccccc4F)c(=O)n3C[C@@H]2[C@H]1CO	2.8	-0.9	i
3	CCNC(=O)C1(C)CCN(C(=O)c2ccc(F)c(Cl)c2)C1 (configuration not stated)	3.4	1.1	i
4	O=C1C2C3CCC(O3)C2C(=O)N1c1nccs1 (configuration not stated)	-0.8	0.4	i
5	CCC(=O)N1C[C@@H](C)[C@H](OC)CN(C)C(=O)c2cc(NC(=O)C3CCCCC3)ccc2OC[C@@H]1C	1.2	0.8	i
6	CC(C)CC#Cc1ccc2c(c1)O[C@H](CN(C)S(=O)(=O)c1cccc(F)c1)[C@@H](C)CN([C@H](C)CO)S2(=O)=O	1.4	-1.8	i
7	C[C@H]1CN([C@@H](C)CO)C(=O)c2c(c3ccccc3n2C)-c2ccccc2CO[C@H]1CN(C)C(=O)Nc1cccc(F)c1	2.6	3.5&-3.0	i
8	CO[C@H]1CN(C)C(=O)c2ccc(NS(=O)(=O)c3cccc(F)c3)cc2OC[C@H](C)N(C(=O)Cc2cccnc2)C[C@@H]1C	-0.8	-0.1	i

nr	rRNA inh HTS OD600	rRNA inh HTS
1	4	-7
2	-13	-9
3	20	8
4	-6	9
5	0	2
6	-3	0
7	5&5	8&-2
8	3	4

Results, repeating the preview:
nr	Compound	AF4-AF9 inh	rRNA inh HTS RFP	FGF22 binding
1	C[C@@H]1CN([C@@H](C)CO)S(=O)(=O)c2ccc(-c3cncnc3)cc2O[C@H]1CN(C)C(=O)c1ccc2c(c1)OCO2	4.3	-1.8	i
2	O=C(NCC1CCCCC1)[C@@H]1N[C@@H]2c3ccc(-c4ccccc4F)c(=O)n3C[C@@H]2[C@H]1CO	2.8	-0.9	i
3	CCNC(=O)C1(C)CCN(C(=O)c2ccc(F)c(Cl)c2)C1 (configuration not stated)	3.4	1.1	i
4	O=C1C2C3CCC(O3)C2C(=O)N1c1nccs1 (configuration not stated)	-0.8	0.4	i
5	CCC(=O)N1C[C@@H](C)[C@H](OC)CN(C)C(=O)c2cc(NC(=O)C3CCCCC3)ccc2OC[C@@H]1C	1.2	0.8	i
6	CC(C)CC#Cc1ccc2c(c1)O[C@H](CN(C)S(=O)(=O)c1cccc(F)c1)[C@@H](C)CN([C@H](C)CO)S2(=O)=O	1.4	-1.8	i
7	C[C@H]1CN([C@@H](C)CO)C(=O)c2c(c3ccccc3n2C)-c2ccccc2CO[C@H]1CN(C)C(=O)Nc1cccc(F)c1	2.6	3.5&-3.0	i
8	CO[C@H]1CN(C)C(=O)c2ccc(NS(=O)(=O)c3cccc(F)c3)cc2OC[C@H](C)N(C(=O)Cc2cccnc2)C[C@@H]1C	-0.8	-0.1	i
9	CC(C)NC(=O)N1[C@H](CO)[C@H](c2ccccc2)C12CN(C(=O)Cc1cccnc1)C2	1.1	-1.6	i
10	C[C@@H]1CN([C@@H](C)CO)C(=O)c2cc(NS(C)(=O)=O)ccc2O[C@@H]1CN(C)C(=O)Nc1ccccc1	-12	-2.1	i

nr	rRNA inh HTS OD600	rRNA inh HTS
1	4	-7
2	-13	-9
3	20	8
4	-6	9
5	0	2
6	-3	0
7	5&5	8&-2
8	3	4
9	16	1
10	-1	3

nr	Compound	AF4-AF9 inh	rRNA inh HTS RFP	FGF22 binding
11	COC(=O)c1cnc(Nc2nc(C(N)Cc3ccccc3)cs2)nc1C(F)(F)F (configuration not stated)	-4.4	-15	i
12	O=C(NCCO)C(=O)NCC(c1cccs1)S(=O)(=O)c1ccc(F)cc1 (configuration not stated)	3.0	-3.0	i
13	Cc1ccccc1-c1cnc2c(c1)C(=O)N([C@H](C)CO)C[C@@H](C)[C@@H](CN(C)C(=O)c1cccnc1)O2	-1.3	-1.2	i
14	CCC(=O)Nc1ccc2c(c1)C(=O)N(C)C[C@H](OC)[C@@H](C)CN(Cc1cccc(F)c1)[C@@H](C)CO2	1.2	-1.0	i
15	O=C(C[C@@H]1CC[C@H](NC(=O)c2ccc3c(c2)OCO3)[C@H](CO)O1)NCc1ccc(Oc2ccccc2)cc1	0.6	2.2	+
16	CC(=O)N1CC2(C1)[C@@H](c1ccc(-c3cccc(C#N)c3)cc1)[C@@H](CO)N2CCC(F)(F)F	2.5	-0.1	i
17	COc1ccc(NC(=O)Nc2ccc3c(c2)C(=O)N([C@@H](C)CO)C[C@@H](C)[C@H](CN(C)CC2CCCCC2)OCCCC[C@H](C)O3)cc1	1.3	-1.4	i
18	COc1ccc(S(=O)(=O)Nc2ccc3c(c2)CC(=O)N([C@@H](C)CO)C[C@@H](C)[C@H](CN(C)C)O3)cc1	-10	-2.7	i
19	CC(C)C#Cc1ccc([C@@H]2[C@H]3CN(C(=O)C4CCCCC4)CC(=O)N3[C@H]2CO)cc1	-11	-1.1	i
20	C[C@H]1CCCCO[C@H](CN(C)S(=O)(=O)c2cn(C)cn2)[C@@H](C)CN([C@@H](C)CO)C(=O)c2cc(NS(=O)(=O)c3ccccc3)ccc2O1	0.9&6.2	1.2&1.0	i

nr	rRNA inh HTS OD600	rRNA inh HTS
11	-80	-58
12	5	5
13	7	3
14	-1	1
15	-28	-10
16	15	-3
17	-2	3
18	11	4
19	-11	3
20	1&-7	0&-4

nr	Compound	AF4-AF9 inh	rRNA inh HTS RFP	FGF22 binding
21	COc1ccc(S(=O)(=O)Nc2cccc3c2O[C@H](CN(C)Cc2ccccc2)[C@@H](C)CN([C@@H](C)CO)C3=O)cc1	-0.3	1.9	i
22	C[C@@H]1CCCCO[C@H](CN(C)C(=O)NC2CCCCC2)[C@@H](C)CN([C@@H](C)CO)C(=O)c2cc(NC(=O)CCC(F)(F)F)ccc2O1	3.4	-3.0	i
23	CC(C)C[C@H]1CNC(=O)C(=O)N1C[C@H]1CCCN1C[C@H](Cc1ccc(O)cc1)N1C[C@H](CC(C)C)N(CC2CCCCCC2)C(=O)C1=O	2.9	15	i
24	CN(C)CCCNC(=O)C[C@H]1CC[C@H]2[C@@H](COC[C@@H](O)CN2CC2CCCC2)O1	-3.9	-1.7	i
25	C[C@H]1CN([C@@H](C)CO)C(=O)Cc2cc(NC(=O)CCN3CCOCC3)ccc2O[C@@H]1CN(C)Cc1ccc(-c2ccccc2)cc1	8.4	15	i
26	C[C@@H]1CCCCO[C@@H](CN(C)Cc2ccccc2)[C@H](C)CN([C@@H](C)CO)C(=O)c2cc(NC(=O)CCCN(C)C)ccc2O1	2.3	0.2	i
27	C[C@H](CO)N1C[C@H](C)[C@H](CN(C)S(=O)(=O)c2ccccc2)Oc2ccc(NC(=O)Nc3cccc4ccccc34)cc2CC1=O	-11	1.4	i
28	COc1cccc(NC(=O)N(C)C[C@@H]2Oc3ncc(C#Cc4ccncc4)cc3C(=O)N([C@H](C)CO)C[C@@H]2C)c1	-3.6	-0.7	i
29	CN1C(=O)c2cc(NC(=O)c3ccccc3)ccc2OC[C@@H]2O[C@@H](CC(=O)NC3CCCC3)CC[C@@H]21	-1.6	0.4	i
30	C[C@@H]1CN([C@@H](C)CO)C(=O)c2cc(NC(=O)C3CC3)ccc2O[C@@H]1CN(C)S(=O)(=O)c1cn(C)cn1	-6.8	-1.2	i

nr	rRNA inh HTS OD600	rRNA inh HTS
21	5	0
22	-12	0
23	-57	-36
24	1	3
25	-9	1
26	-4	-1
27	1	1
28	8	-4
29	-4	-1
30	8	3

nr	Compound	AF4-AF9 inh	rRNA inh HTS RFP	FGF22 binding
31	Cc1ccc(S(=O)(=O)N(C)C[C@H]2Oc3ccc(NC(=O)c4ccncc4)cc3CC(=O)N([C@H](C)CO)C[C@H]2C)cc1	0.9	-1.6	i
32	O=C1NC[C@@H](CCCCN2C[C@H](Cc3ccccc3)N(CCC3CCCCC3)C(=O)C2=O)N(CCc2ccccc2)C1=O	-7.7	9.1	i
33	Cc1ccc(C(=O)NCC(=O)Nc2ccccc2C)o1	-0.1	-2.0	i
34	COCCCN(Cc1cc(OC)c(OC)c(OC)c1)C(=S)Nc1cccc(Cl)c1	-2.7	9.4	i
35	O=S1(=O)CC(N2CCCC2)CN1Cc1cn(Cc2ccc(Cl)cc2)nn1 (configuration not stated)	-2.4	2.6	i
36	COc1cc(OC)c2c(-c3cccc(-c4ccc(C#N)cc4)c3)cc(=O)oc2c1	0.3	-0.4	i
37	COc1cccc(C(=O)Nc2ccc3c(c2)OC[C@@H](C)N(C(=O)C2CCCC2)C[C@H](C)[C@@H](OC)CN(C)C3=O)c1	-11	1.6	i
38	COc1cccc(S(=O)(=O)N2C[C@H](O)COC[C@H]3O[C@@H](CC(=O)Nc4ccccc4)CC[C@@H]32)c1	-4.7	-4.2	i
39	CCN(C1CCCCC1)S(=O)(=O)CCNC(=O)c1ccc(OC)cc1	-0.2	2.4	i
40	O=C(C[C@H]1C=C[C@H](NC(=O)Nc2ccc3c(c2)OCO3)[C@@H](CO)O1)NCCCN1CCOCC1	-1.6	-0.8	i

nr	rRNA inh HTS OD600	rRNA inh HTS
31	-4	2
32	-52	-16
33	16	3
34	-30	-4
35	22	20
36	9	9
37	-10	-7
38	1	1
39	6	7
40	1	0

nr	Compound	AF4-AF9 inh	rRNA inh HTS RFP	FGF22 binding
41	O=C1NC(Cc2ccccc2)c2nc3cc(F)ccc3c(=O)n2-c2cc3ccccc3cc21 (configuration not stated)	0.2	5.6	i
42	CCc1csc(N2[C@H](C#N)[C@H](c3ccc(-c4ccc(F)cc4)cc3)[C@@H]2CO)n1	0.1	24	i
43	C[C@@H]1CN([C@H](C)CO)C(=O)Cc2cc(NS(=O)(=O)c3cccs3)ccc2O[C@@H]1CN(C)C(=O)Nc1ccc2c(c1)OCO2	-2.3	2.9	i
44	NC(=O)C1CN(C(=O)c2nn(Cc3ccccc3)c(=O)c3ccccc23)c2ccccc2O1 (configuration not stated)	1.4	2.4	i
45	COCC(=O)N(C)C[C@H]1Oc2cc(C#Cc3ccccc3)ccc2S(=O)(=O)N([C@@H](C)CO)C[C@@H]1C	4.0	7.3	i
46	CC=Cc1ccc2n(c1=O)C[C@H]1[C@H](CO)[C@@H](C(=O)NCCC)[C@@H]2N1C(=O)c1ccccc1 (mixture of isomers)	-0.1	0.8	i
47	O=C(Nc1ccccc1F)N[C@@H]1CC[C@@H](CCNC(=O)C2CCOCC2)O[C@H]1CO	0.2	-2.4	i
48	C[C@H]1CN([C@@H](C)CO)C(=O)CCCn2cc(nn2)CO[C@H]1CN(C)S(=O)(=O)c1ccc2ccccc2c1	-12	1.9	i
49	CC1(Cc2ccc3ccccc3n2)C(=O)Nc2ccc(OC(F)(F)F)cc21 (configuration not stated)	-0.9	-25	i
50	O=C(NCC[C@H]1CC[C@@H](NS(=O)(=O)c2cccc(F)c2)[C@H](CO)O1)C1CC1	1.8	-1.2	i

nr	rRNA inh HTS OD600	rRNA inh HTS
41	18	21
42	-38	2
43	14	-1
44	-7	-2
45	-16	1
46	8	0
47	4	3
48	-11	-6
49	-80	-64
50	-3	1

nr	Compound	AF4-AF9 inh	rRNA inh HTS RFP	FGF22 binding
51	O=C(C1CCCCC1)N1C[C@@H]2[C@H](c3ccccc31)[C@@H](CO)N2CC1CCOCC1	0.2	-6.3	i
52	O=[N+]([O-])c1cccc(-c2ccc3nnc(SCc4cccnc4)n3n2)c1	-45	1.0	i
53	CN(C)S(=O)(=O)c1ccc(SCC(=O)Nc2cccc(S(=O)(=O)N3CCCC3)c2)nc1	1.4	-5.9	i
54	COc1cccc(C#Cc2cnc3c(c2)C(=O)N([C@@H](C)CO)C[C@@H](C)[C@@H](CN(C)C)O3)c1	6.8	3.5	i
55	COc1ccccc1-c1ccc([C@@H]2[C@@H](CO)N(C(=O)C3CC3)[C@H]2C#N)cc1	-6.9	0.0	i
56	COc1ccc(OC)c(CC(=O)Nc2ccc3c(c2)c(=O)n(C)n3Cc2cccc(C(F)(F)F)c2)c1	1.8	2.5	i

nr	rRNA inh HTS OD600	rRNA inh HTS
51	3	-1
52	1	10
53	2	-10
54	-6	-1
55	-2	2
56	9	6

Screening results: PubChem, Broad Institute
